VACV Venus inh: qHTS for Stage-Specific Inhibitors of Vaccinia Orthopoxvirus: Venus Reporter Primary qHTS | 330,000 tested, 0.46% active | Potency, µM (doses to about 36.5 µM), for inactives: at the highest dose activity change, negative = inhibition, most hits filed as inhibitors | AID 720580, 2013 | Vaccinia virus Venus reporter expression, fluorescence; active means well fitted inhibition curve with a large enough effect; inconclusive means small, poorly fitted or top-dose-only effect; inactive means no such curve, though single readings can be large or run the other way; tested in A549 cells; also: nearly all actives have a fitted effect of over 30% in size; inactives centre near -10
VACV mCherry inh: qHTS for Stage-Specific Inhibitors of Vaccinia Orthopoxvirus: mCherry Reporter Primary qHTS; Vaccinia virus mCherry reporter infection, fluorescence; about a quarter of the inactives have no number; Potency, µM (doses to about 36.5 µM), for the others: at the top dose activity change, negative = inhibition, hits mostly inhibitors; 310,000 tested, 0.63% active; active = well fitted inhibition curve with a large enough effect; inconclusive = small, poorly fitted or top-dose-only effect; inactive = no such curve, though single readings can be large or run the other way; tested in A549 cells; also: nearly all actives have a fitted effect of over 35% in size; inactives centre near -10
* marks the source's active call; other numbers are inactive results; i = inactive; u = inconclusive; x = no result given; & = joins results of further samples; [ ] = remark or other dose. % is scaled to controls: 0 for no effect and ±100 for the full control effect; potency is read from the fitted curve at half-maximal effect.

Values run as follows: VACV mCherry inh	VACV Venus inh
> O=C(CSc1nccn1-c1cccc(Cl)c1)Nc1ccc2c(c1)OCO2
  i	-8.6%
> O=c1c([N+](=O)[O-])c[nH]c2ccccc12
  i	-8.2%
> COC(=O)c1cc(Br)c(=O)n(-c2nccs2)c1
  x	-4.4%
> Cc1cc(C(C)(C)C)cc(C)c1S(=O)(=O)N1CC(=O)Nc2ccccc21
  i	-9.3%
> CC(C)c1csc(CN2CCN(Cc3ccccc3)C(CCO)C2)n1 (configuration not stated)
  -3.1%	-13.4%
> COc1ccc(OC(C)C(=O)Nc2ccccc2F)cc1 (configuration not stated)
  i	5.8%
> CC1CCN(C(=O)C2CCN(C(=O)c3cc4sccc4n3Cc3ccc(F)cc3)CC2)CC1
  u	u
> O=C(NCC(c1cccnc1)N1CCN(c2ccccc2F)CC1)c1cccc(Cl)c1 (configuration not stated)
  x	u
> COc1ccc(NC(=O)CSc2oc(-c3ccco3)nc2S(=O)(=O)c2ccccc2)c(OC)c1
  -16.0%	-7.1%
> COc1ccccc1CNC(=O)CCN1C(=O)c2ccccc2C1=O
  -14.4%	-11.2%
> C=CCN([C@@H](CC(C)C)C(=O)OC)S(=O)(=O)N(CC=C)[C@@H](CC(C)C)C(=O)OC
  -0.5%	-12.3%&-8.1%
> CC(C)NC(=O)C(=O)NCCN1CCN(S(=O)(=O)c2ccc(Cl)cc2)CC1
  -14.0%	-6.4%
> CC(C(=O)N(C)c1ccccc1)N1CCN(C(=O)c2ccccc2)CC1 (configuration not stated)
  -8.3%	-16.7%
> CCOC(=O)c1ccc(-c2ccc(/C=C(\C#N)c3nc4ccc(C)cc4[nH]3)o2)cc1
  u	-13.7%
> COc1ccccc1Oc1c(C)oc2c(CN3CCOCC3)c(O)ccc2c1=O
  -5.9%	2.4%
> COCC(=O)N/N=C/c1ccc(Sc2nc3ccccc3s2)o1
  -19.7%	55.4%[activator]
> C[C@@H]1CN(Cc2ccc3c(c2)CN(Cc2cn[nH]c2-c2ccccc2)CCO3)C[C@H](C)O1
  -13.7%	-4.7%
> O=C(COCc1cc(-c2ccc(F)cc2)on1)Nc1cc(Cl)cc(Cl)c1
  -13.4%	-4.9%
> Cc1ccc(-n2c(SCc3ccccc3F)nc3[nH]ncc3c2=O)cc1Cl
  -17.9%	-7.3%
> COC(=O)c1cc(Br)c(=O)n(Cc2ccncc2)c1
  x	-1.7%

Values run as follows: VACV mCherry inh	VACV Venus inh
> CCCc1cc(=O)oc2cc(OCC(=O)N3CCc4ccccc43)ccc12
  -13.6%[1.46 µM]	-4.0%
> COc1cc(NC(=O)C2=COCCO2)c(OC)cc1Cl
  i	-23.4%
> Cc1ccc(-c2n[nH]c3c2C(c2ccccc2Cl)N(c2ccc(C(=O)O)cc2)C3=O)cc1 (configuration not stated)
  -8.9%	-0.8%
> COCOCCn1cc(CN2CCS(=O)(=O)N(Cc3ccc(-c4ccc(OC)nc4)cc3)C(C)C2=O)nn1 (configuration not stated)
  -12.2%	-1.0%
> Cc1nc(N/N=C/c2cccc([N+](=O)[O-])c2)cc(N2CCCCC2)n1
  -23.1%	-18.1%
> Cc1noc(C)c1S(=O)(=O)N(C)C[C@H]1Oc2ccc(NC(=O)Cn3cnnn3)cc2C(=O)N([C@H](C)CO)C[C@@H]1C
  i	-2.7%
> COc1ccc(NC(=O)c2ccc(OC(F)F)cc2)cc1Cl
  -23.0%	-22.6%
> CC(=O)OCCNc1cc(SCc2ccco2)c2nonc2c1[N+](=O)[O-]
  u	u
> CN(C(=O)CC(NC(=O)c1ccccc1)(c1ccccc1)c1ccccc1)c1ccccc1
  -16.1%	-16.6%
> CSC(=S)N/N=C(\C)c1ccc(Br)cc1
  -7.7%	2.5%
> O=C1/C(=C/c2ccc(N(CCCl)CCCl)cc2)Cc2ccccc21
  i	-14.0%
> O=C(NCc1ccccc1)c1cccc(NC(=O)c2ccco2)c1
  -13.2%	-10.9%
> O=C(c1ccccc1)N(CCN1CCOCC1)C1(C(=O)Nc2ccccc2)CCCCC1
  x	-5.2%
> Cc1nc(-c2ccccc2OC(F)(F)F)[nH]c(=O)c1Cl
  i	-16.1%
> CCN(CC)S(=O)(=O)c1cccc(C(=O)Nc2cc(C)nn2-c2ccccc2)c1
  -14.6%	-5.7%
> O=C(CNC(=O)c1ccc([N+](=O)[O-])cc1)N/N=C/c1c[nH]c2ccccc12
  i	-19.8%
> Cc1cccc(C)c1OCC(=O)Nc1ccc(N2CCOCC2)cc1
  u	-8.8%
> CN1CCN(C(=O)Cn2c(C(F)(F)F)nc3ccccc32)CC1
  -14.7%	-4.0%
> Cc1cccc(C(=O)NC2=NC(c3ccc(Cl)cc3)CC(=O)N2)c1 (configuration not stated)
  -4.0%	-24.4%
> Cc1ccc(NC(=O)C(C)N2C(=O)C3CC=C(Cl)CC3C2=O)cc1 (configuration not stated)
  x	-7.3%

Values run as follows: VACV mCherry inh	VACV Venus inh
> O=C(O)C1CC=CCC1C(=O)Nc1ccc(Oc2ccc(Cl)cc2)cc1 (configuration not stated)
  i	-13.1%
> Cc1nc2ccccc2cc1C(=O)N/N=C/c1ccc([N+](=O)[O-])cc1
  -9.1%	-11.5%
> Cc1ccc(C(=O)C(C)OC(=O)CCS(=O)(=O)c2ccc(C)cc2)cc1 (configuration not stated)
  -8.8%	-17.0%
> CCCCNC(=O)c1cc2c(C)cc(C)cc2[nH]1
  i	-17.2%
> Cc1ccc2[nH]c(=O)c(C3=NN(C(=O)CCC(=O)O)C(c4cccs4)C3)c(-c3ccccc3)c2c1 (configuration not stated)
  -4.0%	-7.6%
> CC(C)c1cc(Cn2c3ccccc3c(=O)n2C(C)Cn2cc(C3=CCCCC3)nn2)on1 (configuration not stated)
  2.3%	-0.2%
> COC(=O)c1nnn(-c2ccccc2)c1N
  -12.3%	-0.9%
> CCN(C(=O)Cn1cc(C(=O)c2ccc(F)cc2)c(=O)c2ccc(C)nc21)c1cccc(C)c1
  -9.5%	-10.2%
> O=C(Nc1ccccc1)N1C2CCC1CC(O)(c1cccnc1)C2 (configuration not stated)
  i	-14.5%
> CCOc1ccccc1-c1ccc(C(=O)NCc2ccccc2)o1
  -26.8%	u
> Nc1ccc(-c2ccc(N)c(C(=O)O)c2)cc1C(=O)O
  i[7.34 µM]	0.0%[7.34 µM]
> COCCN(Cc1ccco1)C(=O)c1cc2c(=O)[nH]c3ccc(C)cc3c2s1
  -11.2%	-14.3%
> COc1ccc(C2N(C(=O)c3ccccc3)CCN2C(=O)c2ccc(C)cc2)cc1 (configuration not stated)
  i	-7.3%
> Cc1ccc(C(C)C)c(OCC(=O)N2CCN(Cc3nc4cc([N+](=O)[O-])ccc4n3C)CC2)c1
  i	1.1%
> C[C@@]12C(=O)N(c3ccc(Br)cc3)C(=O)N1[C@@H]1c3ccccc3OC[C@@H]1[C@H]2c1ccccc1
  i	-14.4%
> COc1ccc(C(=O)NC(C)c2ccc(-n3ccnc3)cc2)cc1[N+](=O)[O-] (configuration not stated)
  1.7%	-3.1%
> COc1ccc(C(CCN2CCCCC2)c2c(O)cc(OC)cc2OC)cc1 (configuration not stated)
  -6.7%	-19.3%
> COc1ccc(Nc2nnc(-n3nc(C)cc3C)c3ccccc23)cc1
  -15.2%	-7.0%
> CCOCC(=O)Nc1cc(C(=O)Nc2cccc(C)c2C)ccc1Cl
  -14.4%	-4.4%
> CCC(=O)N1CCc2cc(CNC(=O)Nc3ccc(OC)cc3OC)ccc21
  -0.9%	-0.1%

In the list so far, these have a furan ring, fused or not:
Values run as follows: VACV mCherry inh	VACV Venus inh
> COc1ccc(NC(=O)CSc2oc(-c3ccco3)nc2S(=O)(=O)c2ccccc2)c(OC)c1
  -16.0%	-7.1%
> CCOC(=O)c1ccc(-c2ccc(/C=C(\C#N)c3nc4ccc(C)cc4[nH]3)o2)cc1
  u	-13.7%
> COCC(=O)N/N=C/c1ccc(Sc2nc3ccccc3s2)o1
  -19.7%	55.4%[activator]
> CC(=O)OCCNc1cc(SCc2ccco2)c2nonc2c1[N+](=O)[O-]
  u	u
> O=C(NCc1ccccc1)c1cccc(NC(=O)c2ccco2)c1
  -13.2%	-10.9%
> CCOc1ccccc1-c1ccc(C(=O)NCc2ccccc2)o1
  -26.8%	u
> COCCN(Cc1ccco1)C(=O)c1cc2c(=O)[nH]c3ccc(C)cc3c2s1
  -11.2%	-14.3%

Other entries follow.
Values run as follows: VACV mCherry inh	VACV Venus inh
> Cc1c(NC(=O)C(C)Sc2ccccc2)c(=O)n(-c2ccccc2)n1C (configuration not stated)
  x	-2.2%
> O=C(NCCCO)C(=O)NCCc1ccc(Cl)cc1
  -12.0%	-8.8%
> O=C(NCc1ccco1)c1ccccc1-c1ccc(C(F)(F)F)cc1
  -23.0%	-21.4%
> COC1CCN(C(=O)c2ccc3oc(Cc4ccc(Cl)cc4)nc3c2)CC1
  -8.8%[7.34 µM]	0.7%[7.34 µM]
> O=C(OCC(=O)N1CCOCC1)c1ccccc1OCc1ccc(Cl)cc1
  i	-4.1%
> CC(OC(=O)Cc1coc2ccc3ccccc3c12)C(=O)Nc1ncc(Cl)cc1Cl (configuration not stated)
  -0.4%	-4.3%
> CCOC(=O)C1=C(COC(=O)CCS(=O)(=O)c2ccc(C)cc2)NC(=O)NC1C (configuration not stated)
  -10.5%	-10.4%
> C#Cc1cccc(NC(=O)C2CCN(C(C)=O)CC2)c1
  i	-3.4%
> COc1cccc(C(=O)NC(=S)Nc2ccc([N+](=O)[O-])cc2C)c1
  -9.3%	-3.9%
> COc1ccc(CNC(=O)CSc2ncc(S(=O)(=O)c3ccc(Br)cc3)c(=O)[nH]2)cc1
  1.9%	5.9%
> Cc1nc(-c2ccc(S(=O)(=O)N3CCN(c4ccc(F)cc4)CC3)cc2)co1
  -10.4%	-12.6%
> Cn1c(=O)c2[nH]c(Cc3cccc(O)c3)nc2n(C)c1=O
  i	-8.3%
> CC(CC(=O)c1ccccc1)=NCC(O)CN=C(C)CC(=O)c1ccccc1 (configuration not stated)
  -7.0%	u
> CN(C(=O)COC(=O)c1ccc(S(=O)(=O)N2CCOCC2)cc1)c1ccccc1
  -19.4%	-9.9%
> O=C(CSc1nc2ccccc2c(=O)[nH]1)Nc1cccc([N+](=O)[O-])c1
  i	-10.8%
> CCCCc1nn2c(=O)cc(COC(=O)c3ccco3)nc2s1
  1.6%	-3.1%
> O=C(O)CSCC(=O)N1N=C2/C(=C/c3ccccc3)CCCC2C1c1ccccc1 (configuration not stated)
  -12.0%	-1.3%
> COc1cc(/C=C(/C#N)C(=O)Nc2ccccc2)ccc1OCc1ccc(C(=O)O)cc1
  -2.0%	-12.7%
> CCN(CC)S(=O)(=O)c1ccc(OC)c(NC(=O)CSCc2c(C)noc2C)c1
  -14.8%	-1.8%
> CC1CCC(Nc2ncnc3onc(-c4ccc(F)cc4)c23)CC1 (configuration not stated)
  -10.0%	-7.6%

Values run as follows: VACV mCherry inh	VACV Venus inh
> O=C(NCc1ccncc1)c1ccc(Oc2ccccc2)cc1
  -20.0%	-9.1%
> CCOC(=O)N1CCN(S(=O)(=O)c2ccc(C(=O)N(CCN(C)C)c3nc4c(C)cccc4s3)cc2)CC1
  -11.8%	-8.4%
> O=C(COC(=O)C1(c2ccccc2)CC1)N1CCN(c2ccc(F)cc2)CC1
  -28.5%	-23.2%
> CCn1c(Cc2cccs2)nnc1SCC(=O)NC(C)(C)C
  i	-10.1%
> CC(C)(Cl)C1Cc2cc3ccc(=O)oc3cc2O1 (configuration not stated)
  -1.9%	-17.7%
> CCOc1ccc(S(=O)(=O)NCC2CCCO2)c2ccccc12 (configuration not stated)
  i	-11.9%
> COc1ccc(C(NC(=O)c2cccc(F)c2)c2ccccc2)cc1 (configuration not stated)
  -10.8%	-8.6%
> OC[C@@H]1CN(Cc2ccc3c(c2)OCO3)C[C@H](n2cnc3c(N4CCCC4)ncnc32)O1
  12.1%	22.9%
> Cc1oc2ccc(O)cc2c1C(=O)OC(C)C
  -11.4%	13.7%
> COC(=O)c1sc(NC(=O)CSc2nnc(Cn3nnc4ccccc43)n2C)nc1C
  -9.4%	-1.7%
> COC(=O)[C@@]12C[C@@H](CC(=O)NCCc3ccccc3OC)C(=O)N(Cc3cccc4ccccc34)C1=CCC(C)(C)C2
  -22.5%	u
> O=C(NCc1cn2ccsc2n1)Nc1cccc(Cl)c1
  x	-12.1%
> COc1ccccc1CC(=O)Nc1ccc(-c2noc(COc3cccc(C)c3C)n2)cc1
  i	-10.4%
> Cc1ccc(C(=O)NCc2ccc3c(c2)OCO3)o1
  -1.0%	-14.1%
> O=C(Nc1cccc(S(=O)(=O)N2CCOCC2)c1)c1cnn2c(C(F)F)cc(-c3ccccc3)nc12
  0.5%	3.6%
> CC(=O)Nc1ccc(/C=C/c2nc(-c3ccccc3O)n(-c3ccccc3)n2)cc1
  -9.2%	-8.2%
> COc1ccc(OC)c(NC(=O)CSC2=Nc3ccccc3C3=NC(CCC(=O)NCCc4ccccc4)C(=O)N23)c1 (configuration not stated)
  -20.7%	-15.8%
> COc1ccc(C(C#N)=Cc2ccccc2OC)cc1
  -13.9%	-27.8%
> CN(Cc1nc(-c2cnccn2)no1)Cc1n[nH]c2c1CCCC2
  -12.4%	-9.1%
> O=C(O)C1CCCCC1C(=O)Nc1cnn(Cc2ccccc2)c1 (configuration not stated)
  x	-15.0%
> CCCN(CCC)c1c([N+](=O)[O-])c(=O)oc2ccccc12
  0.4%	-0.2%
> CC(=O)c1cccc2c(O)c(C3=Nc4ccccc4C3=O)[nH]c12
  -0.5%	2.9%
